# Beta2AR agonist = activates human beta-2 adrenergic receptor causing internalization | P07550 | response, % (concentration not given with the values) | AID 504454 | Am2.2-beta2AR cells, FAP receptor internalization, flow cytometry; reference of the scale not given here | 340,000 tested, 0.43% active;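 active = response above a set limit, near 3 SD of response in nonfluorescent compounds, cut at about 42% in these data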;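 note: stock transfer was 100 nL into about 11 µL; a reference agonist was the positive control; negative values mostly stem from fluorescent compounds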
# LANA-H2A inh = blocks KSHV LANA binding to histone H2A/H2B | inhibition, % (test concentration not listed) | cell-free LANA-H2A/H2B peptide, fluorescence polarization | Q9QR71 | 320,000 tested, 0.6% active; in the data active = inhibition mostly above about 10%, no sharp cut-off; inactive = mostly below about 6.7%;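 note: stock transfer was 7.5 nL into about 10 µL; 0% = median of vehicle wells and 100% = median of positive control wells; one replicate is shown; the record names a cut of 25% in any replicate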
# A1 inh = inhibitors of the anti-apoptotic protein A1, read as caspase activation; MEF A1-2A-BIM cells, Caspase-Glo 3/7 luminescence, 3 h; percent of clofoctol response, vehicle zero; caspase activation, % (concentration not given with the values); 330,000 tested, 0.066% active;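 active = over half of replicate activation scores above 10%, or exactly half above 10 with the replicate mean above 10; inconclusive = replicate mean below 10 yet half the replicates above 10; inactive = over half of replicates below 10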;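 note: wells of about 30 µL received 50 nL stock; many hits fall short of the cut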
# UCH37 inh = human UCH37 deubiquitinating enzyme inhibition; 330,000 tested, 0.33% active; purified proteasome/UCH37, Ub-AMC cleavage fluorescence; inhibition, % (test concentration not listed);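 active = mean of two replicates above 20%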;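 note: 0% = compound-free wells with enzyme and 100% = wells lacking proteasome; stock transfer was 100 nL into about 20 µL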
# Target sequence (Q9Y5K5 whole entry, looked up): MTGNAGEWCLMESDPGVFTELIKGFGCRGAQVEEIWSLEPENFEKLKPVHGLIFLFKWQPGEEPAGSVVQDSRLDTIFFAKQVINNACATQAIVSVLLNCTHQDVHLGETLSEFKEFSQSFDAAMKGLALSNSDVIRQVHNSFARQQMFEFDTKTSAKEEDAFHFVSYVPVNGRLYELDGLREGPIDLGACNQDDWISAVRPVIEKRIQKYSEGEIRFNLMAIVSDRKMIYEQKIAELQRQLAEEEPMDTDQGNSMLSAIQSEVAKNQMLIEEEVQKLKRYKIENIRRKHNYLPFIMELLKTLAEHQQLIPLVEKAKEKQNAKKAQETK
#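 Assay system: Proteasome-bound UCH37. Buffer or medium: pH 7.4 Tris-HCl (50 mM) with ovalbumin, ATP-MgCl2, DTT. Incubation: 30 min preincubation with enzyme, 25 min cleavage at room temperature. Measured by: fluorescence, ex 355 nm, em 460 nm. Read-out basis: percent inhibition. Control set: wells without proteasome as full block, compound-free enzyme plus substrate as uninhibited.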
# E coli growth = inhibitors of Escherichia coli growth. OD600, 23 h; hits give low values. OD600 absorbance (concentration not given with the values). 330,000 tested, 0.21% active. AID 1053175;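 active = OD600 absorbance below the run mean of sample wells minus 3.6 SD, in any replicate, cut at about 0.56 in these data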;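 note: stock transfer was 300 nL into about 60 µL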
# Vif A3G = HIV-1 Vif–A3G interaction blockers – biochemical, TR-FRET, GST-Vif 1-94, biotin-A3G peptide, dose response retest, primary screen (AID 1117319) | TR-FRET GST-Vif / biotin-A3G peptide binding; higher % means a stronger effect; test concentration not given here; strong numbers were not always called active | inhibition, %, or IC50 in µM where a hit was titrated | 260,000 tested, 0.57% active;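 active = above the screen mean plus three standard deviations and confirmed in dose response; inconclusive = results disagree or hit not tested in dose response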;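 note: Vif residues 1-94 fused to GST binding biotinylated APOBEC3G peptide 110-148; 0% = full assay without inhibitor and 100% = GST in place of GST-Vif; retest series ran down from 100 µM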
# HNF4A DNA FP = change in binding of human HNF4 alpha to DNA. HNF4a-FITC DNA binding, fluorescence polarization, 1 h. activity change, % at 10 µM. AID 1224865. P41235. 360,000 tested, 0.3% active; in the data active = activity change above about 30%, passing the limit was not always enough;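 note: controls were the assay level and a saturating level of protein; the project sought stronger binding though the title names inhibitors; some compounds called inactive have numbers as strong as hits; positive values seem to mean higher polarization but the record does not say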
# Target sequence (P41235 whole entry, looked up): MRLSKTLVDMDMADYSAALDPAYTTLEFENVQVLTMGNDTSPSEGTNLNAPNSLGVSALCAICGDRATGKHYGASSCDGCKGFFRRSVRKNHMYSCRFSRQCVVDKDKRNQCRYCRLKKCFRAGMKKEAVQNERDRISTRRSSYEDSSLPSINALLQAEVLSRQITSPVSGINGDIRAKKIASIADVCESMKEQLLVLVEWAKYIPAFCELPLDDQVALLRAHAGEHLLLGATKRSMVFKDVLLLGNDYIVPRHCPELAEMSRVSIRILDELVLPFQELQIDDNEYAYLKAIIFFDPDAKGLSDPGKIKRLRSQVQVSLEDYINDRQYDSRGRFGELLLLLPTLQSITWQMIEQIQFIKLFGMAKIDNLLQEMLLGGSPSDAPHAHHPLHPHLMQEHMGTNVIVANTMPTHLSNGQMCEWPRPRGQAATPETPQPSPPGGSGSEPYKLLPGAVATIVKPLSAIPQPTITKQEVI
# Active calls of the source: *; ? = inconclusive; . = not tested or not shown; & = joins results of further samples.
SMILES,Beta2AR agonist,LANA-H2A inh,A1 inh,UCH37 inh,E coli growth,Vif A3G,HNF4A DNA FP
C/C(CCc1ccccc1)=N\NC(=O)C1C2CCCCC21 (stereo not given),0.9,-2.3,-0.5,.,.,5.4%,-2.9
CCCn1nnc(NC(=O)c2ccc(OCC)c(Cl)c2)n1,-0.3,-2.2,0.4,0.7,0.62,21.4%,0.7
CC(=O)c1ccc(N=Nc2ccc(N)cc2)cc1,9.9,-5.4,-6.2,9.0,0.688,.,-0.7
O=C(c1ccccc1S(=O)(=O)NCC(O)COc1ccc([N+](=O)[O-])cc1)N1CCCCC1 (stereo not given),-2.1,-1.1,1.8,7.7,0.697,5.5%,0.3
Cc1ccc(C)c(NC(=O)COc2cccc3c2CCN(Cc2ccccc2C)C3=O)c1,14.2,-4.4,0.3,1.6,0.705,.,-1.8
C/C(=N\NC(=O)CCn1nnc2ccccc21)c1ccco1,0.3,-0.7,0.8,.,.,8.5%,2.2
C=CCNc1nc(Nc2ccc(OC)cc2)nc(OC)n1,-6.5,-0.7,0.4,2.2,0.665,1.5%,-2.5
CCc1ccc(-n2c(=O)c3ccc(C(=O)NCCc4ccccc4)cc3n(CC(N)=O)c2=O)cc1,2.6,-0.8,-0.3,2.4,0.712,-6.0%,0.8
CCOC(=O)c1c(SCC(=O)Nc2nc(C)cs2)nc(=O)[nH]c1C,-10.3,9.5,0.0,4.9,0.706,.,2.8
Cc1ccc(CNc2nc3ccccc3n3nnnc23)cc1,27.4,-1.2,-0.6,-14.6,0.767,-3.2%,-8.7
N=C1S/C(=C\c2ccc(-c3cccc(Cl)c3)o2)C(=O)N1c1nccs1,-43.7,.,-1.0,11.6,0.686,.,-18.4
Cc1cc(Cl)ccc1OCC(=O)Nc1cccc(S(=O)(=O)NC2=NCCCCC2)c1,2.6,2.3,0.1,-1.9,0.63,-4.1%,3.2
O=C(COc1ccc(Cl)cc1)NCc1nnc(SCC(=O)NCCc2ccccc2)o1,-2.0,-1.4,0.8,3.3,0.769,?,-3.5
CC(=O)Nc1ccc(S(=O)(=O)NCCNC(=O)c2ccccc2F)cc1,-5.7,4.2,0.2,1.7,0.736,-3.2%,2.2
O=C(NCCCN1CCOCC1)c1cc2c(s1)CCC2,2.5,1.4,-0.1,1.0,0.755,-0.2%,2.6
Cc1cc(C)cc(NS(=O)(=O)c2cc(C(=O)NCc3ccccn3)ccc2Cl)c1,1.7,-2.6,0.6,-1.7,0.706,7.0%,-1.8
CC(NC(=O)c1ccc2c(c1)OCO2)C(c1cccs1)N1CCN(c2ccccc2)CC1 (stereo not given),1.2,1.8,1.7,4.2,0.701,-5.7%,10.1
CC(C)NC(=S)NC1(C)CCS(=O)(=O)C1 (stereo not given),8.4,-3.9,0.2,1.1,0.682,.,-0.9
COc1ccc(N=C2S/C(=C\c3ccco3)C(=O)N2CC(C)C)cc1,-3.0,-2.5,0.6,3.9,.,?,0.6
CSc1nc2c(c(=O)[nH]1)C(c1ccc(F)cc1)CC(=O)N2 (stereo not given),-0.2,4.8,0.5,2.2,0.712,-13.1%,0.2
Fc1cc(F)c2nc(N3CCOCC3)sc2c1,-8.6,.,-5.7,6.5,0.667,.,-2.5
CCN(CC)C(=O)COc1ccc2oc(C)c(C(=O)OC)c2c1,-1.0,1.5,0.9,2.5,0.68,1.9%,-1.5
O=C(NCc1cccnc1)C1c2ccccc2C(=O)N1C1CCCC1 (stereo not given),0.5,2.9,1.4,3.1,0.728,73.7%,0.9
CC(C)CNC(=O)COC(=O)c1c2c(nc3ccccc13)CCC2,11.3,3.0,1.4,-13.2,0.683,.,1.4
Cc1csc(SCC(=O)N(c2ccccc2)C(C)C)n1,-1.8,.,.,3.1,0.582,3.7%,-0.8
O=C(Nc1cc(N2CCOCC2)ncn1)c1ccccc1,17.8,1.0,0.1,2.3,0.689,-6.1%,2.3
CN1C(=O)C(C)(C)c2cc(S(=O)(=O)N3CCC(C(=O)NCc4ccc(Cl)cc4)CC3)ccc21,-11.3,-1.4,-0.8,3.8,0.642,.,-0.9
CCOc1cc(C(=O)N(C)Cc2cc3cc(OC)ccc3[nH]c2=O)cc(OCC)c1OCC,4.4,-1.6,1.8,-30.2,0.75,-0.7%&-1.0%,-1.3
COc1ccccc1C1C(C#N)=C(N)Oc2cc(C)n(CCCn3ccnc3)c(=O)c21 (stereo not given),-5.8,-1.3,-0.1,0.2,0.696,14.4%,2.6
COc1ccc(CC(=O)NCC(=O)Nc2ccccc2Br)cc1,5.2,-2.2,0.7,-2.0,0.678,11.9%,1.9
Nc1c(C(=O)Nc2cccc(Cl)c2Cl)sc2nc(-c3cccnc3)ccc12,31.9,6.4,-0.6,0.3,0.664,.,31.5
O=C(CSc1nc(-c2ccc(F)cc2)cc(C(F)(F)F)n1)NCc1cccs1,-11.8,-3.4,-0.7,0.7,0.688,-12.1%,-3.6
CC(=O)C(Sc1nnnn1-c1ccccc1)C(C)=O,0.3,-0.9,0.4,1.7,0.668,-6.1%,0.1
c1cc(-c2nsc(-c3ccncc3)n2)ccn1,-3.3,2.3,-4.2,6.2,0.605,-7.5%,-2.9
O=C(Nc1cc(S(=O)(=O)N2CCOCC2)ccc1N1CCOCC1)c1ccc(S(=O)(=O)N2CCCCC2)cc1,3.4,-2.7,-0.4,0.9,0.701,?,-17.4
Cc1noc(C)c1C(=O)OCC(=O)Nc1cccc(S(N)(=O)=O)c1,6.0,-3.3,-0.7,3.1,0.706,-4.6%,3.4
COc1cccc(-c2cc(C(=O)Nc3cnn(Cc4ccc(F)cc4)c3)no2)c1,-7.4,-0.6,0.3,-7.8,0.691,5.9%,2.9
COc1ccc(S(=O)(=O)N2CCCC2C(=O)Nc2nc3c(s2)CCCC3)cc1 (stereo not given),1.0,-1.1,0.2,2.8,0.763,-1.2%,2.2
Cc1ccc(NC(=O)C2CCC(=O)N2C(=O)OCc2ccccc2)cc1 (stereo not given),-4.5,4.1,-0.1,-0.1,0.652,.,2.1
CC(=O)Nc1ccc(S(=O)(=O)N(C)CC(=O)OCC(=O)N2CCc3ccccc32)cc1,2.1,-6.1,0.0,5.8,0.702,5.3%,-0.9
COc1ccccc1-n1cnc2cc(NC(=O)c3ccco3)ccc21,-21.9,-7.2,-0.5,2.0,0.69,0.7%,-1.4
COc1ccc(Br)cc1CNC(=O)Cc1c(C(=O)O)[nH]c2ccc(Cl)cc12,3.0,7.4,-1.0,3.0,0.583,.,0.5
CCOc1ccccc1CNC(=O)C1Cc2cc(S(=O)(=O)N3CCCCC3)ccc2N1C(C)=O (stereo not given),-7.5,-2.4,0.3,0.7,0.593,1.4%,2.3
CN(Cc1ccccc1)C(=O)CSc1nc2ccccc2[nH]1,-13.3,-6.1,0.2,2.8,0.666,.,0.8
CCC/C(=N\NC(=O)c1ccc(CSc2nncn2C)cc1)c1ccccc1,-3.2,2.5,-0.2,.,.,27.2%,-2.4
C[C@@]12CCC=C[C@H]1[C@H](c1ccc3ccccc3c1)N(Cc1ccccc1)C2=O,8.8,-0.5,0.3,0.6,.,-8.1%,1.8
O=C(Cn1ncc2c1-c1ccccc1OC2)N1CCN(Cc2ccccc2)CC1,-2.8,-2.3,-0.2,2.7,0.665,-5.1%,10.2
CCCCN(C(=O)CSc1nc(CCC)cc(=O)[nH]1)c1c(N)n(Cc2ccccc2)c(=O)[nH]c1=O,-1.3,-1.2,-0.4,5.0,0.687,-0.8%,3.5
COc1ccc(CNCCC(c2ccc(F)cc2)c2ccc(OC(C)C)cc2)cc1OC (stereo not given),31.9,-5.5,-0.2,.,.,?,2.4
Cc1nc(CCNC(=O)CC2C(=O)NCCN2Cc2ccoc2)nc2c1CCCC2 (stereo not given),2.8,-4.0,0.6,2.6,0.689,18.6%,3.2

# Next results
SMILES,Beta2AR agonist,LANA-H2A inh,A1 inh,UCH37 inh,E coli growth,Vif A3G,HNF4A DNA FP
OCC(CO)c1cnnc2ccccc12,-4.2,.,.,.,.,-6.3%,0.8
CN(C)CCCN(C(=O)COc1ccc(Cl)cc1)c1nc2c(F)cccc2s1,-9.3,2.1,-0.9,0.8,0.735,.,-0.9
COCCN(C(=O)CSc1ncc(C(F)(F)F)cc1Cl)c1c(N)n(Cc2ccccc2)c(=O)[nH]c1=O,-10.8,0.8,1.1,1.4,0.662,-6.7%,-1.3
COc1cc(/C=C/C(=O)O)cc(S(=O)(=O)NC2CC2)c1OC,0.9,1.1,-0.5,-0.1,0.688,-2.3%,1.9
ClC(CCN1CCN(Cc2ccccc2)CC1)c1ccccc1 (stereo not given),4.8,-0.7,-0.4,2.8,0.709,.,-0.6
CCN(CC)CCCNC(=O)Cn1cnc2sc(C)c(S(=O)(=O)N3CCN(c4ncccn4)CC3)c2c1=O,-4.1,5.4,0.5,3.7,0.706,.,-3.1
CCN(CC)S(=O)(=O)c1cccc(-c2nnc(-c3ccc(C)cc3)o2)c1,-12.3,8.1,1.4,3.5,0.728,6.8%,6.1
CC(=O)Nc1ccc(NC(=O)CSc2nnc(NC(=O)c3ccco3)s2)cc1,0.4,-5.6,-2.1,3.3,0.71,.,2.5
O=C(NC1CCCCC1)NC12CC3CC(CC(C3)C1)C2,-20.1,-4.5,2.0,0.6,0.707,-1.1%,1.7
OCC1OC(n2cnc3c(NC4CCCC4)ncnc32)C(O)C1O (stereo not given),-7.2,-0.5,0.1,1.7,0.678&0.672,.,2.4
COc1ccc(N(CC(=O)N2CCc3ccccc3C2)S(C)(=O)=O)cc1OC,0.0,1.0,0.8,0.3,0.712,0.5%,-0.3
C=CCNCCCCOc1ccc(C)cc1[N+](=O)[O-],-9.1,-6.3,1.4,2.9,0.734,-1.8%,-3.6
CCCn1c(SCC(=O)Nc2ccccc2Cl)n[nH]c1=O,1.6,-4.0,0.0,-0.7,0.673,.,-4.9
Cc1nnc(SCC(=O)NCc2cccs2)[nH]c1=O,3.6,-2.7,0.0,2.3,0.643,67.9%,-1.5
O=C(NC(=O)N1CCCCC1)c1ccc(Cl)cc1,1.9,3.3,1.0,3.5,0.731,-5.9%,-2.8
O=C(CCc1ccccc1)OCC(=O)c1ccc(Br)cc1,2.5,0.0,-0.4,-3.5,0.701,10.4%,3.4
CCOC(=O)C1CCN(Cc2cnc(Oc3ccc(N)cc3)s2)CC1,-4.4,-6.5,.,3.9,0.636,3.5%,2.9
Cc1nc(Nc2ccccc2)[nH]c(=O)c1CCC(C)C,-3.0,-1.8,0.1,4.6,0.703,-0.2%,-2.6
COC(=O)c1ccc(NC(=S)NC(=O)c2c(Cl)cnn2C)cc1,-1.9,-4.5,-2.0,6.0,0.733,.,2.3
COc1ccc(N(CC(=O)Nc2ccccc2SC)S(C)(=O)=O)cc1OC,-5.4,3.4,-0.4,2.1,0.714,0.9%,-1.2
Nc1ncnc2c1ncn2-c1ccccc1Cl,-1.0,.,.,-0.1,0.72,-4.1%,6.3
Cc1cc(-n2c(=S)sc3c(=O)n(-c4ccc(F)cc4)c(SCC(=O)O)nc32)ccc1Cl,-5.6,1.9,-0.2,9.6,0.625,1.7%,0.6
Cc1cc(NC(=O)CSc2nc(-c3cccs3)nc3ccccc23)no1,6.4,0.6,0.0,-6.8,0.665,.,4.0
CN(C)Cc1c(C(=O)Nc2ccccc2)[nH]c2ccccc12,-3.6,-12.7,0.4,0.2,0.693,.,4.2
Cc1nc2sc(C(c3ccc(Cl)cc3)N3CCN(c4ccccc4F)CC3)c(O)n2n1 (stereo not given),2.9,1.0,-0.1,2.4,0.691,-8.3%,0.9

# Screening results (PubChem BioAssay)
